High-throughput results: PubChem BioAssay, National Center for Advancing Translational Sciences (NCATS)
Cruzain Triton = inhibitors of Trypanosoma cruzi cruzain with detergent. P25779. purified cruzain, Z-FR-AMC fluorescence, 0.01% Triton. Potency, µM, for inactives: max response, negative = inhibition, hits mostly inhibitors. 0.43% of 200,000 active;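 also: plate controls were neutral wells for no effect and buffer without enzyme for full effect; nearly all actives have a fitted effect of over 40% in size; top concentration of the series not given in the record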
Target sequence (P25779 123-467 limits assumed): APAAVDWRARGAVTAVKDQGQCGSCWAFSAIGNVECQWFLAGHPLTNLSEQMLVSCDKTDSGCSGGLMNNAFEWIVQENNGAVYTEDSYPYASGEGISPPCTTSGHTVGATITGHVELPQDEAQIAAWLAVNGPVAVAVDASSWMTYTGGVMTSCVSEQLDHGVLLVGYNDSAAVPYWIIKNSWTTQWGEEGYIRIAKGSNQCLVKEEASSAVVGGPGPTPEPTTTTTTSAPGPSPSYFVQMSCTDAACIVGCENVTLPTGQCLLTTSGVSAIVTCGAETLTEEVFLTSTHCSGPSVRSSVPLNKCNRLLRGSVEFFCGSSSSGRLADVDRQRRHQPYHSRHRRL
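Compounds were screened in titration against cruzain (1.5 nM) with 0.01% Triton X-100 to counter colloidal aggregation. Activity was the AMC fluorescence increase over 60 s after adding 2 uM Z-FR-AMC at pH 5.5.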
2A StopGo = FMDV 2A StopGo reporter, luciferase signal; human cells with a luciferase reporter of 2A StopGo recoding; control for the full effect not named in the record; Potency, µM (titrated, usually from 57.9 µM), without a hit: top-dose signal change, negative = less light; 1.2% of 410,000 active; active = well fitted falling curve with a large enough effect; inconclusive = small, poorly fitted or top-dose-only effect; inactive = no such curve, though single readings can be large or run the other way; tested in HEK293T cells; also: % is scaled to controls: 0 for no effect and ±100 for the full control effect; nearly all actives have a fitted effect of over 45% in size; luciferase light after 4 h
RE007 growth inh = less growth of the S. pombe RE007 Vpr strain; 0.21% of 360,000 active; Potency, µM (highest dose often 92.2 µM), for inactives: at the top dose activity change, negative = less growth; S. pombe RE007 Vpr strain, BacTiter-Glo ATP luminescence, 24 h; control for the full effect not named in the record; active = well fitted falling curve with a large enough effect; inconclusive = small, poorly fitted or top-dose-only effect; inactive = no such curve, though single readings can be large or run the other way;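 also: % is scaled to controls: 0 for no effect and ±100 for the full control effect; nearly all actives have a fitted effect of over 50% in size; the assay follows cell death caused by Vpr and the record does not say whether a fall means rescue or toxicity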
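Fission yeast RE007 carrying one integrated HIV-1 vpr copy, seeded at OD 0.01 in PMG+AL medium with 23 nL pinned compound. Grown 24 h at 30 degrees; viability read by BacTiter-Glo luminescence after 5 min.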
SARS PLP yeast = inhibitors of SARS-CoV papain-like protease in yeast | S. cerevisiae expressing SARS-CoV PLpro, growth rescue; control for the full effect not named in the record | 0.19% of 330,000 active | Potency, µM (titrated, usually from 32.9 µM), inactives show at the top dose activity, positive = growth rescue; active means well fitted rising curve with a large enough effect; inconclusive means small, poorly fitted or top-dose-only effect; inactive means no such curve, though single readings can be large or run the other way; also: 0% is about no effect; nearly all actives have a fitted effect of over 55% in size; growth read by luminescence after 48 h
NS1 function inh = inhibitors of influenza NS1 protein function | Potency, µM (titrated, usually from 46.1 µM), for the others: top-dose activity, positive = more growth | 0.4% of 270,000 active | S. cerevisiae slowed by influenza A NS1, growth recovery by OD600; active means well fitted rising curve with a large enough effect; inconclusive means small, poorly fitted or top-dose-only effect; inactive means no such curve, though single readings can be large or run the other way; also: nearly all actives have a fitted effect of over 50% in size
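Compounds were scored for reversing the slow growth caused by influenza A NS1 in S. cerevisiae, measured by optical density at 600 nm. Assay medium contained 2% galactose at pH 6.0; NS1-free yeast of the same strain were the positive control.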
MARV entry inh = inhibitors of Marburg virus binding or cell entry; Marburg virus pseudotyped entry inhibition, cell reporter; control for the full effect not named in the record; about a third of the inactives were read at about 46 µM; 1.8% of 300,000 active; Potency, µM (titrated, usually from 37.8 µM), for the others: top-dose activity change, negative = inhibition, most hits filed as inhibitors; active = well fitted inhibition curve with a large enough effect; inconclusive = small, poorly fitted or top-dose-only effect, or effect the other way; inactive = flat fitted curve, though single readings scatter; tested in HEK293 cells; about a fifth of its hits are not listed in these tables; also: % is scaled to controls: 0 for no effect and ±100 for the full control effect; luciferase read-out
Cruzain noTriton = blocks cruzain activity in detergent-free assay. purified cruzain, Z-FR-AMC fluorescence, no detergent. Potency, µM, inactives show max response, negative = inhibition, usual class: inhibitors. 2.3% of 200,000 active. P25779;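 also: plate controls were enzyme without inhibitor for no effect and buffer without enzyme for full effect; nearly all actives have a fitted effect of over 40% in size; top concentration of the series not given in the record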
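Detergent-free condition (0.00005% Triton X-100) in acetate buffer pH 5.5 with DTT. 1.5 nM enzyme and compound were pre-mixed 15 min, then 2 uM Z-FR-AMC substrate added; reaction progress from fluorescence change between first and third reads (60 s).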
LASV entry inh = blocks Lassa virus binding to or entry into cells. Lassa virus pseudotype entry inhibition, cell reporter; control for the full effect not named in the record. Potency, µM (top dose mostly 37.9 µM), for inactives: at the highest dose activity change, negative = inhibition, most hits filed as inhibitors. 1.2% of 300,000 active. AID 540256; active means well fitted inhibition curve with a large enough effect; inconclusive means small, poorly fitted or top-dose-only effect, or effect the other way; inactive means flat fitted curve, though single readings scatter; tested in HEK293 cells; also: % is scaled to controls: 0 for no effect and ±100 for the full control effect; nearly all actives have a fitted effect of over 50% in size; luciferase read-out
The depositor's hits bear a star; ? = inconclusive; · = not tested or not shown; & = joins results of further samples; [ ] = another dose, or the depositor's remark. Unless noted, calls follow the shape of the dose curve; as a rule, active = well fitted curve in the direction sought with a large enough effect; inconclusive = small, poorly fitted or top-dose-only effect, or another doubt; inactive = no such curve, though single readings can be large; an effect the other way counts as inactive or inconclusive. Potency is read from the fitted curve at half-maximal effect.

SMILES	Cruzain Triton	2A StopGo	RE007 growth inh	SARS PLP yeast	NS1 function inh	MARV entry inh	Cruzain noTriton	LASV entry inh
O=C(Nc1ccc2c(c1)OCCO2)c1cccc2nc3ccccc3nc12	-0.3%	?	2%	0%	14%	?	?	-29%
CCOC(=O)c1cc2c(ccn2-c2ccc(F)cc2)n1CC(=O)N(CC)CC	·	-15%	15%	-1%	3%	-28%	·	?
O=C(NCc1ccc(F)cc1Cl)c1ccc(CSCc2ccccc2Cl)o1	-0.1%	-16%	·	·	·	·	6%	-27%[46.1 µM]
CCN(C(=O)COC(=O)c1nc2nc(C)cc(C)n2n1)C1CCCCC1	·	-17%	-2%	-2%	·	12%	·	?
CC(C)[C@H](NC(=O)C1CCN(C(=O)[C@@H]2CCCN2)CC1)C(=O)NCc1ccc(F)cc1	·	-14%	12%	-6%	5%	·	·	·
COc1ccc(Br)cc1CNC(=O)Cn1nc(C)n2cccc2c1=O	·	-14%	-2%	-1%	21%	·	·	·
CCNc1nnc(CCn2nc(C)c(Br)c2C)s1	·	13%	17%	-1%	4%	6%[46.1 µM]	·	13%
Cc1ccc2c(CN3CCOCC3)cc(=O)oc2c1C	·	1%	-6%	11%	-7%	·	·	·
COc1ccc(C(=O)CSc2n[nH]c(-c3ccncc3)n2)cc1[N+](=O)[O-]	-0.6%	-22%	6%	9%	18%	9%	3%	-11%
CCn1c(NCc2ccccn2)nc2c1c(=O)n(C)c(=O)n2C	-0.1%	8%	16%	-9%	4%	?	-4%	1%
O=C(NC1CCCCC1)N(Cc1ccccc1)Cc1ccco1	-0.2%	-19%	9%	·	-14%	-6%	4%	-4%
O=C(NCC(c1cccs1)N1CCOCC1)c1cc2ccccc2o1 (stereo not drawn)	5.1%	·	19%	5%	-11%	3%	1%	-15%
CCCCN(CCCC)S(=O)(=O)c1ccc2oc(C(=O)N3CCOCC3)c(C)c2c1	-3.6%	0%	-8%	-1%	-94%	?	?	-18%
COc1cccc(C(C(=O)NC(C)(C)C)N(CC(C)C)C(=O)CCC(=O)Nc2cc(C)on2)c1OC (stereo not drawn)	·	-15%	-4%	0%	3%	?	·	-19%[46.1 µM]
COc1ccc(C(=O)NCC(c2ccco2)S(=O)(=O)c2ccc(F)cc2)cc1 (stereo not drawn)	0.9%	-27%	·	·	·	·	?	?
O=C(COc1ccc2ccc(=O)oc2c1)N1CC[C@@]2(O)CCCC[C@H]2C1	·	-13%	-9%	1%	6%	·	·	·
Cn1c(=O)c2cc(S(=O)(=O)NC(Cc3ccccc3)C(=O)NCc3ccco3)ccc2n(C)c1=O (stereo not drawn)	20µM*	6%	-1%	10%	-40%	4%	16µM*	·
Cc1ccccc1C(=O)NNC(=O)C(C)N1C(=O)c2ccccc2C1=O (stereo not drawn)	-2.2%	·	-13%	2%	-1%	2%	-5%	16%
O=[N+]([O-])c1ccc(-c2nc(Nc3cccc(O)c3)c3ccccc3n2)cc1	·	?	-8%	0%	4%	·	·	·
CCCc1[nH]nc2c1C(c1ccc(OC)c(CSC3=NCCS3)c1)C(C#N)=C(N)O2 (stereo not drawn)	-10%	?	-3%	1%	-77%	4%	-11%	0%
CCOc1ccc(S(=O)(=O)Nc2ccc3c(c2)OCO3)c2cccnc12	-7.0%	79%[activator]	-19%	-5%	?	-2%[46.1 µM]	?	-2%
COc1ccc(-c2cc(C(F)F)n3ncc(C(=O)N4CCc5ccccc5C4)c3n2)cc1	·	?	-12%	0%	-2%	?	·	?
Cc1ccccc1C(=O)c1cccn1CC(=O)NCc1cccc(Cl)c1	-9.4%	11%&31%	6%	-4%	-1%	16%&16%[46.1 µM]	-1%	0%[46.1 µM]
CCOC(=O)c1ccc(NC(=O)N2CC3CCCN3c3ccccc32)cc1 (stereo not drawn)	-8.4%	?	·	·	·	·	-26%	21%[46.1 µM]
CN(c1ccccc1)c1nc(N)c([N+](=O)[O-])c(N2CCCCC2)n1	·	2%	-18%	1%	-2%	·	·	·
O=C(C1=C(O)C(=O)N(Cc2ccccc2)C1c1ccncc1)c1ccco1 (stereo not drawn)	6.9%	31%[activator]	?	0%	-23%	25%	-2%	12%
COc1ccc(N2CCN(c3nc4ccc(C(=O)c5ccccc5)cc4n4cnnc34)CC2)cc1	-2.1%	-19%	·	·	·	·	4%	26%[46.1 µM]
O=C(NC1CCCC1)C1c2ccccc2C(=O)N1C1CCCCC1 (stereo not drawn)	2.0%	-16%	12%	16%	9%	1%	14%	?
c1ccc(C2=Nn3c(nnc3-c3cccs3)SC2)cc1	·	-15%	14%	-1%	-3%	-1%[14.2 µM]	·	-13%
CCn1c(O)c(C=NCc2ccccc2)c(=O)[nH]c1=S	·	-3%	0%	0%	·	26%[46.1 µM]	·	5%
CCCCCn1c(=O)c(C(=O)Nc2ccccc2C)c(O)c2ccccc21	·	27%	5%	1%	-8%	24%[46.1 µM]	·	27%[46.1 µM]
OC(CNCCNc1ncccc1C(F)(F)F)Cn1ccc2ccccc21 (stereo not drawn)	·	-23%	2%	1%	6%	·	·	·
CC(=O)N1CCN(S(=O)(=O)c2ccc(C)cc2)C1C(C)C (stereo not drawn)	0.1%	-2%	6%	-5%	0%	3%	-2%	-1%
CC1CCCC=CC2CC(OC(=O)CN(C)C)CC2C(O)C=CC(=O)O1 (stereo not drawn)	·	-18%	?	·	·	?	·	1.4µM*
CC(C)CCN(C)C1CCN(C(=O)Nc2c(F)cccc2F)CC1	4.3%	-16%	-5%	10%	1%	·	-4%	·
NC(=O)C1CCN(Cc2nc3cc(C(F)(F)F)ccc3c(=O)[nH]2)CC1	·	-26%	1%	-1%	0%	·	·	·
CC(C)(C)NC(=O)c1cccc(NC(=O)c2ccco2)c1	5.6%	5%	?	1%	0%	12%	-3%	4%
COc1ccc(CNC(=O)c2c(-c3c(F)cccc3Cl)noc2C)cc1	·	4%	-13%	0%	-7%	-3%	·	?
COC(=O)C/C=C/[C@@H](C)[C@@H](/C=N/OCC[C@@H]1C=C[C@H](OC(C)=O)[C@@H](COC(C)=O)O1)NS(=O)(=O)c1ccc(C)cc1	-1.6%	·	·	3%	-35%	?	?	-8%
COc1ccc(NC(=O)CCS(=O)(=O)c2ccc(Br)s2)cc1	·	-7%	12%	-3%	14%	-12%[46.1 µM]	·	-26%
O=C(COC(=O)c1cnccn1)c1ccc2ccccc2c1	0.6%	-3%	-27%	-10%	-85%	6%	-2%	6%
CC(C)NC(=O)C(Cc1ccccc1)N1C(=O)c2ccccc2C1=O (stereo not drawn)	-0.2%	·	1%	18%	10%	15%	-1%	-7%
Cc1ccccc1-n1c(C)nnc1SCC(=O)NC1CCCc2ccccc21 (stereo not drawn)	-1.1%	13%	·	-17%	7%	?	19%	2%
COc1ccc(N(CC(=O)NCc2ccc(C)cc2)S(=O)(=O)c2ccccc2[N+](=O)[O-])c(OC)c1	·	8%	-8%	0%	12%	?	·	?
Cc1nc(SCC(=O)N2c3ccccc3NC(=O)CC2C)c2c(C)c(C)sc2n1 (stereo not drawn)	·	-10%	11%	-2%	·	-19%	·	?
CCOc1ccc(OCC)c(NC(=O)CSc2nc3c(c(=O)n(C)c(=O)n3C)n2C)c1	0.1%	·	·	-6%	-7%	-1%	5%	·
C/C(=N/NC(=O)c1ccoc1C)c1ccc(NC(=O)c2ccncc2)cc1	-6.8%	1%	-12%	-1%	-2%	17%	-15%	-6%
O=S(=O)(c1ccc(Br)s1)N1CCC(Cc2ccccc2)CC1	1.3%	-21%	20%	9%	6%	-20%	?	1%

Part of the list above in order of heavy-atom count, falling:
SMILES	Cruzain Triton	2A StopGo	RE007 growth inh	SARS PLP yeast	NS1 function inh	MARV entry inh	Cruzain noTriton	LASV entry inh
COC(=O)C/C=C/[C@@H](C)[C@@H](/C=N/OCC[C@@H]1C=C[C@H](OC(C)=O)[C@@H](COC(C)=O)O1)NS(=O)(=O)c1ccc(C)cc1	-1.6%	·	·	3%	-35%	?	?	-8%
COc1ccc(N(CC(=O)NCc2ccc(C)cc2)S(=O)(=O)c2ccccc2[N+](=O)[O-])c(OC)c1	·	8%	-8%	0%	12%	?	·	?
CCOc1ccc(OCC)c(NC(=O)CSc2nc3c(c(=O)n(C)c(=O)n3C)n2C)c1	0.1%	·	·	-6%	-7%	-1%	5%	·
COc1ccc(CNC(=O)c2c(-c3c(F)cccc3Cl)noc2C)cc1	·	4%	-13%	0%	-7%	-3%	·	?
CC(C)NC(=O)C(Cc1ccccc1)N1C(=O)c2ccccc2C1=O (stereo not drawn)	-0.2%	·	1%	18%	10%	15%	-1%	-7%
O=C(COC(=O)c1cnccn1)c1ccc2ccccc2c1	0.6%	-3%	-27%	-10%	-85%	6%	-2%	6%

(next part)
SMILES	Cruzain Triton	2A StopGo	RE007 growth inh	SARS PLP yeast	NS1 function inh	MARV entry inh	Cruzain noTriton	LASV entry inh
CN1CCN(c2cc3c(cc2F)c(=O)c(C(=O)O)cn3CCF)CC1	·	0%	-3%	0%	1%	·	·	·
COc1ccc(-c2nc(CSCC(=O)NCCCN3CCCC3=O)c(C)o2)cc1	·	2%	-5%	0%	14%	-24%[46.1 µM]	·	1%[46.1 µM]
Fc1cccc(NC(=S)Nc2cccc3ccccc23)c1	·	25%	-12%	-4%	-13%	-7%[46.1 µM]	·	-11%[46.1 µM]
Cc1c(NS(=O)(=O)c2cc(C(=O)NCc3ccco3)cc(Cl)c2Cl)c(=O)n(-c2ccccc2)n1C	·	-2%	-9%	-41%	·	-2%[46.1 µM]	·	-24%
O=C(C1CCN(c2ccc(N3CCOCC3)nn2)CC1)N1CCc2ccccc2C1	5.0%	-5%	-3%	-8%	-2%	20%	-3%	2%
O=C1c2ccccc2C(=O)N1c1nc(-c2cccs2)cs1	-12%	-4%	-7%	-4%	-93%	10%[46.1 µM]	-21%	12%
O=C(CCSc1ccccc1)Nc1ccc(S(=O)(=O)N2CCOCC2)cc1	-2.0%	0%	-6%	11%	-11%	2%[46.1 µM]	8%	0%

Rows are unselected, and some 4.6% of all compounds hit somewhere here.
